# Screening data as filed in PubChem BioAssay.
# D2 ag – Beta-Arrestin HTS for Positive Allosteric Modulators of the Human D2 Dopamine Receptor: Agonists. activation, % (test concentration not listed). 360,000 compounds, 0.084% hits. DiscoveRx PathHunter D2 beta-arrestin, luminescence, 90 min; 100% = 57 uM dopamine signal. AID 624465, 2012; in the data active = activation above about 40%; inconclusive = about 15% to 40%; inactive = below about 15%; also: compound concentration not given in the record; the text of the record calls up to 30% inactive
# Target sequence (P14416 whole entry, looked up): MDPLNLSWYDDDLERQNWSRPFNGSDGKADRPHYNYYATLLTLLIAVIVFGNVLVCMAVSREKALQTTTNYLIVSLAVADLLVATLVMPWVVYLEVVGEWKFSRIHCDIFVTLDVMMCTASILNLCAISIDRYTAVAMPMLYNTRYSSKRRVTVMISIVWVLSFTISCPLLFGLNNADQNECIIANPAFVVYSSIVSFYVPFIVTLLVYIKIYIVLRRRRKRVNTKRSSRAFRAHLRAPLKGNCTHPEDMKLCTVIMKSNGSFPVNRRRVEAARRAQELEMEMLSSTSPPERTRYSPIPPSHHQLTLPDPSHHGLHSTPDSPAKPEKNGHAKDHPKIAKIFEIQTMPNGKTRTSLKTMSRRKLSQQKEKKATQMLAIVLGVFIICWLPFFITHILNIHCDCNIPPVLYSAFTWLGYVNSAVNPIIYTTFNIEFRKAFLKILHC
#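 DiscoveRx PathHunter D2 beta-arrestin cells (2,100/well) attached overnight, then compound-stimulated 90 min at 37 C in HBSS/10 mM HEPES/0.1% Tween-20 buffer; beta-galactosidase complementation read by luminescence after 1 h at ambient temperature. Dopamine 57 uM final (EC100) as control.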
# Six1-Eya2 blk – qHTS Assay for Inhibitors of the Six1/Eya2 Interaction; Homeobox protein SIX1 (Homo sapiens) + Protein phosphatase EYA2 (Homo sapiens), …; AlphaScreen GST-Six1/His-Eya2 binding, biochemical; active compounds read low; control for the full effect not named in the record; activity change, % (concentration not given with the values); 360,000 compounds, 0.56% hits; AID 651725, 2012; in the data active = activity change below about -65%; inconclusive = about -30% to -65%; inactive = above about -30%; also: % is scaled to controls: 0 for no effect and ±100 for the full control effect
#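 GST-Six1 + His-Eya2 (5X stock: 250/500 nM); Tris pH 8.0, 300 mM NaCl, 0.05% BSA, 0.02% Tween 20; GSH donor/Ni acceptor beads; 1 h 37 °C dark; AlphaScreen readout.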
# Sfp inh – qHTS Assay for Inhibitors of Bacillus subtilis Sfp phosphopantetheinyl transferase (PPTase) | Biochemical Sfp PPTase activity, qHTS | 4'-phosphopantetheinyl transferase ffp (Bacillus subtilis), Q9F4F7 | 310,000 compounds, 3.5% hits | Potency, µM, for inactives: max response, negative = inhibition, actives largely listed as inhibitors; active = well fitted inhibition curve with a large enough effect; inconclusive = small, poorly fitted or top-dose-only effect, or another doubt; inactive = no such curve, though single readings can be large or run the other way;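 also: the enzyme is Sfp with the accession as filed and its product quenches rhodamine fluorescence; potency is read from the fitted curve at half-maximal effect; 0% = enzyme reaction without inhibitor and -100% = no enzyme wells; top concentration of the series not given in the record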
#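 Step 1, compound plus 15 nM Sfp-PPTase, 15 min, room temperature. Step 2, add rhodamine-CoA (5 uM) and BHQ-2-YbbR (12.5 uM). Step 3, read 525/598 nm fluorescence at 0 and 30 min.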
# TRPV1 PAM – HTS Assay for Compounds that Act as Potentiators of the Vanilloid Receptor 1 | AID 540277, 2011 | 320,000 compounds, 0.02% hits | TRPV1-expressing cells, Fluo-8 calcium influx, capsaicin EC20 potentiation; host cell line not named in the record; control for the full effect not named in the record | Transient receptor potential cation channel subfamily V member 1 (Homo sapiens), Q8NER1 | potentiation, % at 8.33 µM; active means potentiation above 80%; inconclusive means 30% to 80%; inactive means below 30%; also: 0% is about no effect
#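 Cells expressing TRPV1 were dye-loaded with Fluo-8 and read kinetically: 10 s baseline, 3 min after compound (agonist portion), then 2 min after EC20 capsaicin (allosteric enhancer portion). Calcium-bound dye fluorescence at 480/520 nm.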
# PINK1 expr mod – A Quantitative High throughput Screen to Identify Chemical Modulators of PINK1 Expression; PINK1 immunofluorescence, high-content cytometry, 24 h; Potency, µM (doses to about 76.6 µM), inactives show top-dose activation (PINK1 increase), usual class: activators; 410,000 compounds, 0.2% hits; active = well fitted activation curve with a large enough effect; inconclusive = small, poorly fitted or top-dose-only effect; inactive = flat fitted curve, though single readings scatter; cell line not stated here;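 also: potency is read from the fitted curve at half-maximal effect; % of control where 0% means no effect; nearly all actives have a fitted effect of over 65% in size; a mitochondrial uncoupler was the plate control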
#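 Cells are seeded, rested 12 hours, then given compound at five concentrations or DMSO for 24 hours. After fixation, blocking and antibody staining, PINK1 amount and mitochondrial localization are scored; CCCP serves as control.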
# CtBP-E1A blk – qHTS Assay for Inhibitors of the CtBP/E1A Interaction | CtBP / adenovirus E1A interaction (AlphaScreen) | AlphaScreen GST-E1A/His-CtBP binding, 1536-well; active compounds read low; control for the full effect not named in the record | activity change, % (no concentration beside the values) | 340,000 compounds, 0.49% hits; in the data active means activity change below about -65%; inconclusive means about -30% to -65%; inactive means above about -30%; also: % is scaled to controls: 0 for no effect and ±100 for the full control effect
#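 In 5 uL wells, 23 nL compound meets equimolar GST-E1A and His-CtBP (5X stock 125 nM each) for 2 h, 37 °C. Beads (5X, 50 ug/mL) then 1 h, 37 °C, dark.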
# D2 potentiator – Beta-Arrestin HTS for Positive Allosteric Modulators of the Human D2 Dopamine Receptor: Potentiators; DiscoveRx D2 beta-arrestin cells, luminescence, 90 min; 100% = 57 uM dopamine signal; potentiation, % (no concentration beside the values); 360,000 compounds, 0.23% hits; AID 624464, 2012; active = potentiation of 50% or more; inconclusive = 30% to 50%; inactive = 30% or less;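 also: compound concentration not given in the record; tested on top of an EC20 dose of dopamine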
#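 PathHunter D2 cells, attached overnight at 37 deg C, received compound in DMSO plus dopamine at EC20 (50 nM final) for 90 min at 37 deg C. Beta-arrestin recruitment was read as luminescence after 1 h with detection reagent at ambient temperature.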
# Active calls of the source: *; ? = inconclusive; · = no result given; & = joins results of further samples; [ ] = another dose, or the depositor's remark.
# Each structure is followed by: D2 ag	Six1-Eya2 blk	Sfp inh	TRPV1 PAM	PINK1 expr mod	CtBP-E1A blk	D2 potentiator
COc1ccc(OC)c(NC(=O)C2CC(=O)N(c3ccccc3)C2)c1 (centres undefined)
  -1.3	3	-21%	9	-0.3%	-3	-5
CSc1ccc(S(=O)(=O)NCC(=O)OCC(=O)N(C)Cc2ccccc2)cc1[N+](=O)[O-]
  -1.2	7	·	8	0.7%	4	-3
O=C(NCc1ccccc1)C(c1ccccc1)N(C(=O)c1csnn1)C1CCCC1 (centres undefined)
  -3.7	3	6%	-8	3.3%	17	-4
Cc1cc(Nc2cccc(Cl)n2)n(-c2ccccc2)n1
  0.7	6	2%	2	5.8%	-4	-14
COC(=O)CCCn1cc(CN2CC(N3CCCCC3)CS2(=O)=O)nn1 (centres undefined)
  ·	-3	·	·	-0.5%	0	·
Nc1ccccc1SCc1csc(-c2ccc(Cl)cc2)n1
  3.2	-1	14µM*	2	3.2%	·	-21
C/C(=N\NC(=S)NCCc1ccccc1)c1cccs1
  -3.7	-26	7%	5	1.3%	-24	-6
Cc1cccc(NC(=S)N(CCN2CCOCC2)Cc2cc3cc4c(cc3[nH]c2=O)OCO4)c1
  -1.8	-6	10%	-18	1.7%	16	1
CN(C)c1ccc2cc(S(=O)(=O)O)cc(O)c2c1
  11	-73*	·	·	1.5%	?	9
COc1ccc(C(=O)Cc2ccc(F)cc2)c(OC)c1
  -3.2	12	1%	-10	4.1%	7	-12
CCCOC(=O)c1c(NC(=O)C2C3C=CC(C3)C2C(=O)O)sc2c1CCC(C)C2 (centres undefined)
  -6.7	-4	40µM*	-16	0.0%	·	-11
COc1ccccc1NC(=O)CSc1nnc(COc2ccc(Cl)cc2)n1Cc1ccco1
  0.1	-8	?	-12	-2.0%	-14	-4
C=C(C)C(=O)Nc1cccc(C2=NOC3(C2)C[C@H](C(N)=O)N(C(=O)CC#N)C3)c1 (some centres undefined)
  -0.6	-19	-1%	0	1.6%	-2	-23
CCS(=O)(=O)C1=NN2C(=N)/C(=C\c3ccc(OS(=O)(=O)c4ccccc4)cc3)C(=O)N=C2S1
  2.8	-9	?	-12	-0.4%	-7	-23
CC1(OC(=O)CCc2ccccc2)C(=O)C=C2C=C(c3ccc(C#N)cc3)N(CC3CC3)C=C2C1=O (centres undefined)
  5.3	-30	20%&17%	-20	0.9%	-22	12
COc1ccc(-c2cc(-c3cccs3)nc(OC)c2C#N)cc1OC
  2.2	23	1%	-6	5.5%	12	-13
CCCOc1ccc(N2C(=O)CC(NCc3cccnc3)C2=O)cc1 (centres undefined)
  -1.9	-7	1%	5	0.3%	0	-1
COc1ccc(C(=O)NC2CCN(CC(=O)NC3CCCCC3)CC2)cc1
  -1.1	-6	18%	-18	-0.7%	5	-9
Cc1nn(CC(=O)Nc2ccc(C(=O)N3CCCCC3)cc2)c(=O)c2ccccc12
  -1.5	3	-9%	-3	16%[38.3 µM]	8	-19
Cc1cccc(-n2ncc3c2CCCC3NC(=O)CCN2CCCCO2)c1C (centres undefined)
  -2.9	-1	15%	-1	1.2%	0	-5

# Structures from the list above that have a thiophene ring, fused or not, in the order listed:
# Each structure is followed by: D2 ag	Six1-Eya2 blk	Sfp inh	TRPV1 PAM	PINK1 expr mod	CtBP-E1A blk	D2 potentiator
C/C(=N\NC(=S)NCCc1ccccc1)c1cccs1
  -3.7	-26	7%	5	1.3%	-24	-6
CCCOC(=O)c1c(NC(=O)C2C3C=CC(C3)C2C(=O)O)sc2c1CCC(C)C2 (centres undefined)
  -6.7	-4	40µM*	-16	0.0%	·	-11
COc1ccc(-c2cc(-c3cccs3)nc(OC)c2C#N)cc1OC
  2.2	23	1%	-6	5.5%	12	-13

# (next part)
# Each structure is followed by: D2 ag	Six1-Eya2 blk	Sfp inh	TRPV1 PAM	PINK1 expr mod	CtBP-E1A blk	D2 potentiator
CCN1CCN(C(=O)c2c(-c3c(Cl)cccc3Cl)noc2C)CC1
  6.1	0	10%	28	0.4%	7	-1
C[C@H](CO)N1C[C@H](C)[C@@H](CN(C)Cc2ccc(-c3ccccc3)cc2)Oc2c(NS(=O)(=O)c3cn(C)cn3)cccc2C1=O
  0.0	-1	·	·	0.8%	1	-1
Nc1nc(COc2ccc(Cl)cc2)cs1
  -0.5	-1	6%	0	0.2%	-3	-1
Cc1ccc2nc(N/C(N)=N/S(=O)(=O)c3ccc([N+](=O)[O-])cc3)nc(C)c2c1
  1.2	-6	2%	-7	-0.9%	9	5
O=C(NCC1CC1)NC(=O)c1c(F)cccc1Cl
  -0.8	10	2%	-1	0.6%	·	29
COCCCN(C(=O)C(C)Oc1ccc(Br)cc1)c1c(N)n(Cc2ccccc2)c(=O)[nH]c1=O (centres undefined)
  -3.6	18	·	6	-2.1%	-16	-10
O=C(CSc1c[nH]c2ccccc12)N1CCOCC1
  0.6	5	-7%	5	4.7%[38.3 µM]	5	-9
CCCOc1ccc(-c2c(C(=O)N/N=C(\C)c3ccco3)nnn2-c2nonc2N)cc1
  0.1	10	11%	-19	6.5%	·	-4
O=C(NCc1ccccc1)C1CCCN(S(=O)(=O)c2ccc(-n3cnnn3)cc2)C1 (centres undefined)
  2.3	0	-5%	6	7.3%	5	1
CCOCCCNC(=O)c1c(N)n(-c2ccc(S(N)(=O)=O)cc2)c2nc3ccccc3nc12
  -0.9	0	-17%	-11	4.3%	1	-20
FC(F)(F)c1cc(-c2ccco2)nc(NCCc2ccccc2)n1
  -2.6	36	14%	-20	19%	21	-7
CN(Cc1nc(CCc2ccccc2)no1)Cc1cccs1
  -0.5	14	-11%	-10	-0.1%	12	-1
CCn1c(CSCc2ccc(F)cc2)nnc1SCC(=O)N1CCN(c2ccccc2)CC1
  0.8	-14	0%	1	0.5%	-1	-25
CC(CN1CCOCC1)OC(=O)COc1ccc(F)cc1 (centres undefined)
  -0.7	8	1%	-5	0.3%	4	0
O=C(O)CCCNS(=O)(=O)Cc1ccccc1
  -1.0	0	-9%	6	2.1%	·	3
COc1ccc(N(C(=O)CNC(=O)c2cccs2)C(C(=O)NC2CCCC2)c2cccnc2)cc1 (centres undefined)
  -1.4	1	9%	1	-0.1%	0	1
O=C(COC(=O)c1cccc(O)c1)NCc1ccc2c(c1)OCO2
  4.1	0	21%	-1	2.8%	1	0
O=C(NC(c1ccccc1)c1cnccn1)C1CCN(CCOc2ccc(Cl)cc2Cl)CC1 (centres undefined)
  -3.7	-2	·	·	-0.7%	-19	-10
CC(C)CC(C(=O)NC(C)(C)C)N(CC1CCCO1)C(=O)c1snc(C(N)=O)c1N (centres undefined)
  -4.1	-4	23%	-3	-1.0%	-2	-8
N#C/C(C(=O)NCc1ccccc1)=C1\SC(CCO)C(=O)N1c1ccccc1 (centres undefined)
  1.1	3	-13%	-10	-1.0%	3	?
CCc1ccc(/C=C2\SC(N3CCCC3)=NC2=O)cc1
  -2.9	0	12%	23	8.4%	4	-5
O=C(NCc1ccccn1)Nc1cccc([N+](=O)[O-])c1
  -6.3	2	9%	-1	0.3%	4	-23
O=C(O)CN1C(=O)/C(=C\c2ccccc2OCc2ccc(Cl)cc2)SC1=S
  -0.1	-4	-13%	-46	0.6%	·	-19
CCCCCC(=O)N1C[C@@H](n2cc(-c3ccc(F)cc3)nn2)[C@H](O)C[C@@H]1c1ccccc1
  -8.4	0	·	·	1.0%	2	-4
Cc1ccc(S(=O)(=O)N(C)Cc2ccc(-c3nnco3)cc2)cc1
  0.8	-2	4%	-16	14%	2	-8
COc1ccc(-c2cc3cc(OC)c(OC)cc3cn2)cc1
  -5.3	-18	·	·	1.2%	?	-9
COc1ccc(-c2c(C(=O)O)c(-c3ccccc3)cn2C)cc1
  -0.4	-2	·	21	0.3%	-1	-43
Cc1ccc(NC(=S)N=Nc2c(O)n(C)c3ccc(S(=O)(=O)N4CCOCC4)cc23)cc1
  -3.5	-12	7%	-1	0.6%	-13	-25
COc1ccc(/C=N/NC(=O)CNC(=O)/C=C/c2ccco2)cc1OC
  -1.9	-17	-22%	-9	-0.3%	-5	-6
Cc1cc(C)c(NC(=O)c2ccc3c(c2)CCN3S(C)(=O)=O)c(C)c1
  -3.6	-3	15%	-9	0.4%	·	3
CC(=O)N(CCCN(C)C)Cc1ccccn1
  -1.1	1	6%	·	0.3%	-2	-8
COCCNC(=O)C1(C)CCCN(C(=O)c2cccc(OC(F)(F)F)c2)C1 (centres undefined)
  -3.1	6	·	·	-0.1%	6	-11
CC[C@@]12C(=O)N(c3cccc(C)c3)C(=O)N1[C@H](c1ccc(Br)cc1)[C@@H]1C(=O)N(C(C)(C)C)C(=O)[C@@H]12
  -1.7	0	15%	9	-0.6%	-17	-10
Cn1c(=O)c2c(nc(SCC(=O)NCC3CCCO3)n2Cc2ccc(F)cc2)n(C)c1=O (centres undefined)
  -2.4	0	12%	0	0.5%	-3	-2
Cc1cc(Br)cc(/C=N/NC(=O)c2ccc3c(c2)OCO3)c1O
  -1.1	0	-7%	-7	2.2%	·	-70
CCOc1ccc(N(C(=O)c2snc(C(N)=O)c2N)C(C(=O)NCC2CCCO2)c2ccc(C)o2)cc1 (centres undefined)
  -2.5	-10	4%	21	-0.3%	-8	-8
CCOc1ccc2nc(NC(=O)c3ccco3)sc2c1
  0.7	-2	6%	-9	0.7%	-3	1
CCOC(=O)N1CCN(C(=O)CCC(=O)N2CCOc3ccc(C)cc32)CC1
  -4.7	7	11%	-4	1.9%	1	-18
CCOC(=O)C1=C(C)NC(=O)NC1c1c(OCC(=O)N2CCCCC2)ccc2ccccc12 (centres undefined)
  -2.8	23	7%	10	0.0%	26	-13
